Assay outcomes: PubChem BioAssay, National Center for Advancing Translational Sciences (NCATS)
TRPV1 potentiator = HTS Assay for Compounds that Act as Potentiators of the Vanilloid Receptor 1; Transient receptor potential cation channel subfamily V member 1 (Homo sapiens), Q8NER1; TRPV1-expressing cells, Fluo-8 calcium influx, capsaicin EC20 potentiation; host cell line not named in the record; control for the full effect not named in the record; potentiation, % at 8.33 µM; hit rate 0.02% among 320,000; active means potentiation above 80%; inconclusive means 30% to 80%; inactive means below 30%; also: 0% is about no effect
Target sequence (Q8NER1 whole entry, looked up): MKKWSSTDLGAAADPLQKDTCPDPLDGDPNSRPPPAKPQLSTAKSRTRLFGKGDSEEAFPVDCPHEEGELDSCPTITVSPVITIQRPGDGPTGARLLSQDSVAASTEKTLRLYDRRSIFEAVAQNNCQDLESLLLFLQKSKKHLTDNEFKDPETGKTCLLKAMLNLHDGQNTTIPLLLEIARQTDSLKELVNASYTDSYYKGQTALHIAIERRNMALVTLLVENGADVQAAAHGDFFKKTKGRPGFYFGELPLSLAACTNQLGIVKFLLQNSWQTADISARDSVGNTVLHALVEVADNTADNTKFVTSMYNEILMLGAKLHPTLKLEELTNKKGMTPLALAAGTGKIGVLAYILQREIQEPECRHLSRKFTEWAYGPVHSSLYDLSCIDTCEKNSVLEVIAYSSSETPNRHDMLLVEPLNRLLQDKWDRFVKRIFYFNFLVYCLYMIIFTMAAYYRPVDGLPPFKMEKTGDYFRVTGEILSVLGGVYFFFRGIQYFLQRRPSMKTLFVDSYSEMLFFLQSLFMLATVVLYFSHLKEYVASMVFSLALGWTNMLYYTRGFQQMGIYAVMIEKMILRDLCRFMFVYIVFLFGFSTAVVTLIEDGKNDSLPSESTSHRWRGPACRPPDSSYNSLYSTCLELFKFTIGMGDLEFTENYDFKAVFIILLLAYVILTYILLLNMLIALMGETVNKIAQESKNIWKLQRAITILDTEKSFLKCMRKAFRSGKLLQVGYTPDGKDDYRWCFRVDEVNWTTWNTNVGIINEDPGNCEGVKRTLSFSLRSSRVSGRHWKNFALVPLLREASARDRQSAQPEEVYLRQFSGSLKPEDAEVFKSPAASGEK
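Fluo-8 calcium influx in TRPV1-expressing cells, kinetic read (ex 480/em 520 nm). Compound added and read 3 min for agonist activity, followed by capsaicin at EC20 final and 2 min further read for enhancement.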
TRPML1 inh = qHTS for Inhibitors of the Human Mucolipin Transient Receptor Potential 1 (TRPML1) | activity change, negative = inhibition, % (no concentration beside the values) | TRPML1-inducible cells, Ca2+ dye fluorescence, FDSS; active compounds read low; inhibition of EC80 agonist-evoked calcium signal | Mucolipin-1 (Homo sapiens), Q9GZU1 | hit rate 0.02% among 390,000 | AID 624415, 2012; in the data active means activity change below about -50%; inconclusive means about -30% to -50%; inactive means above about -30%;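 also: stimulus is agonist 54-4 at its EC80 concentration; % is scaled to controls: 0 for no effect and ±100 for the full control effect; compound concentration not given in the record; the text of the record puts the active cut at -80%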
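Calcium fluorescence in TRPML1-DL cells induced overnight with Tet: a 110 s read after compound pin addition, then a 110 s antagonist read after challenge with 54-4 at 4 uM final (EC80).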
Sfp inh = qHTS Assay for Inhibitors of Bacillus subtilis Sfp phosphopantetheinyl transferase (PPTase); Biochemical Sfp PPTase activity, qHTS; Potency, µM, without a hit: max response, negative = inhibition, actives largely listed as inhibitors; hit rate 3.5% among 310,000; active = well fitted inhibition curve with a large enough effect; inconclusive = small, poorly fitted or top-dose-only effect, or another doubt; inactive = no such curve, though single readings can be large or run the other way;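 also: the enzyme is Sfp with the accession as filed and its product quenches rhodamine fluorescence; potency is read from the fitted curve at half-maximal effect; 0% = enzyme reaction without inhibitor and -100% = no enzyme wells; top concentration of the series not given in the record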
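Fluorescence-quenching assay with 15 nM Sfp, 5 uM rhodamine-CoA and 12.5 uM BHQ-2-labelled ybbR peptide in pH 7.6 Hepes/MgCl2 buffer. Enzyme was pre-incubated with compound for 15 min at room temperature. Rate was taken from the 30-min fluorescence change (525/598 nm).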
TRPML1 ag = qHTS for Agonists of the Human Mucolipin Transient Receptor Potential 1 (TRPML1) | activation, % (test concentration not listed) | Mucolipin-1 (Homo sapiens), Q9GZU1 | hit rate 0.12% among 410,000 | AID 624414, 2012 | TRPML1-expressing cells, Ca2+ dye fluorescence, FDSS; host cell line not named in the record; reference of the full effect not given here; in the data active = activation above about 50%; inconclusive = about 30% to 50%; inactive = below about 30%; also: 0% is about no effect; the text of the record puts the active cut at 80%
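Agonist activity was taken from a 110 s kinetic Ca2+ dye read on the FDSS after pinning compounds onto TRPML1-DL cells. The cells were seeded at 1,500/well with Tet inducer, incubated about 16 h, then dye-loaded at room temperature.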
ClpP mod = qHTS Assay for Activators of ClpP; AID 651965, 2013; purified B. subtilis ClpP, FRET peptide cleavage, 20 min; ATP-dependent Clp protease proteolytic subunit (Bacillus subtilis (strain 168)), P80244; Potency, µM (highest dose often 57.5 µM), for the others: at the highest dose activity change, negative = active; hit rate 1.9% among 340,000; active = well fitted falling curve with a large enough effect; inconclusive = small, poorly fitted or top-dose-only effect; inactive = no such curve, though single readings can be large or run the other way; also: potency is read from the fitted curve at half-maximal effect; the source files actives as falling curves though it sought activators and does not explain the sign; nearly all actives have a fitted effect of over 65% in size; many hits overshoot -100%
Target sequence (P80244 whole entry, looked up): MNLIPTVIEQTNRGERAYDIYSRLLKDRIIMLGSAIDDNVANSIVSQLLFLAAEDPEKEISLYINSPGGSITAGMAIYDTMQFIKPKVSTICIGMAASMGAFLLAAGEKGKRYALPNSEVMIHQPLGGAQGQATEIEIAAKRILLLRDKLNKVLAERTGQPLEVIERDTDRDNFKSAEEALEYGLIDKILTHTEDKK
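ClpP 10 microg/mL final, pH 8 Tris/KCl buffer with BSA, glycerol, Tween-20; compound pinned in; FRET-FV substrate; RT 20 min; Ex320/Em430; ΔFRET vs ADEP 5.8 microM, DMSO, no enzyme.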
Menin-MLL FL inh = qHTS Assay for Inhibitors Targeting the Menin-MLL Interaction in MLL Related Leukemias: Competition With Fluorescein Labeled MLL-derived Peptide; Fluorescence polarization, fluorescein-MLL peptide displacement from menin; FP activity change, % at 61.4 µM; 290,000 tested, under 10 active; inconclusive = falling polarisation curve, or a change in total fluorescence; inactive = total fluorescence flat and polarisation flat or rising; no compound was filed as active; the % refers to the polarisation; negative = inhibition;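 also: % of control where 0% means no effect; inhibitors lower the polarisation; unlabelled MLL peptide was the positive control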
PINK1 modulator = A Quantitative High throughput Screen to Identify Chemical Modulators of PINK1 Expression; AID 624263, 2012; PINK1 immunofluorescence, high-content cytometry, 24 h; hit rate 0.2% among 410,000; Potency, µM (highest dose often 76.6 µM), inactives show at the top dose activation (PINK1 increase), actives largely listed as activators; active = well fitted activation curve with a large enough effect; inconclusive = small, poorly fitted or top-dose-only effect; inactive = flat fitted curve, though single readings scatter; cell line not stated here;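 also: potency is read from the fitted curve at half-maximal effect; % of control where 0% means no effect; nearly all actives have a fitted effect of over 65% in size; a mitochondrial uncoupler was the plate control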
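Stable cell line, 250 cells/well, 12 h attachment; compounds pinned at 5 concentrations, 24 h; CCCP control. Fixed with nuclear dye, primary antibodies 12 h at 10 degrees C, secondary plus cell stain; laser-scanning cytometer read.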
* marks the source's active call; other numbers are inactive results; ? = inconclusive; . = not tested or not shown; [ ] = remark or other dose.

smiles,TRPV1 potentiator,TRPML1 inh,Sfp inh,TRPML1 ag,ClpP mod,Menin-MLL FL inh,PINK1 modulator
COc1ccc(NC(=O)Cn2c(=O)n(CCC(=O)NCc3ccccc3OC)c(=O)c3ccccc32)cc1Cl,.,19,.,-0.4,0.5%,.,2.5%
CNc1ccc(Br)cc(C(=O)/C=C/c2cccc(OC)c2)c1=O,20,3,20µM*,0.5,-8.9%,13,1.3%
CCc1nnc(NC(=O)CSc2nnc(-c3c[nH]c4ccccc34)n2CCOC)s1,4,-1,4%,0.3,1.7%,-0.6,11%[38.3 µM]
CC(=O)c1sc(-c2ccc(Cl)cc2)cc1N,-5,5,-4%,-1.3,-18%,1.3,4.1%
CC(C)(CO)NCC#Cc1ccccc1,-5,-3,12%,0.9,-1.6%,-2.1,2.4%
O=C(O)c1cccc2c1C(=O)c1ccc(N3CCN(Cc4ccc5c(c4)OCO5)CC3)cc1S2(=O)=O,.,26,.,1.4,-2.0%,.,1.4%
Cc1ccc(-c2c(C)n3c4c(=O)n(C)c(=O)n(C)c4nc3n2CCCO)cc1,.,-13,.,1.9,2.1%,.,1.9%
O=C(CCCN1C(=O)/C(=C/c2ccco2)SC1=S)Nc1ccccc1C(=O)O,8,-3,50µM*,1.8,-1.5%,?,-0.7%
Cc1ccc(C(=O)NC(C)c2nc3ccccc3n2CC(=O)Nc2c(C)cc(C)cc2C)cc1 (configuration not stated),3,.,-17%,.,.,5.5,.
CN(C)c1ccc(/C=N/Nc2nncc3ccccc23)cc1,-27,-3,-2%,-0.6,.,-0.6,?
CC(C(=O)OCC(=O)c1ccccc1)N1C(=O)C2C3CCC(C3)C2C1=O (configuration not stated),3,-18,15%,-0.3,.,1.0,-1.4%
Cc1ccc2nc(NCC(N)=O)nc(-c3ccccc3)c2c1,5,7,-3%,0.8,3.3%,0.5,0.0%
CCOc1cc(CNc2ccc(N3CCOCC3)cc2)cc(Br)c1OCC,0,2,-24%,0.5,1.7%,2.5,14%
CC(C)(C)c1ccc(-c2n[nH]c(=S)n2CCCN2CCOCC2)cc1,-18,21,3%,-0.3,.,-3.7,-0.8%
CN(C)c1ncc2nc(-c3ccccc3)c(=O)n(Cc3cccs3)c2n1,.,.,16%,.,.,0.4,0.5%
Cc1ccc(S(=O)(=O)Nc2cc(=O)[nH]c(SCC(=O)Nc3cccc(C(F)(F)F)c3)n2)cc1,14,5,29%,3.8,-1.7%,-0.1,17%
O=C(CCc1ccccc1)NNC(=O)c1ccc(Cl)cc1,-8,-3,1%,-0.4,0.6%,3.5,0.2%
NC(=O)c1ccc(Cn2c(C(=O)c3cc(Cl)c(N)c(Cl)c3)c3ccccc3[n+]2[O-])cc1,7,-12,.,0.2,-2.3%,.,7.1%
COc1ccc2c(CC(=O)Nc3ccc(OC)c(NS(=O)(=O)c4ccc(F)cc4)c3)coc2c1,15,3,0%,3.1,1.7%,1.3,-0.4%
COc1ccc(CCNC(=O)COC(=O)C2=NNC(=O)CC2)cc1,.,19,.,0.1,-2.4%,.,-1.6%
CCCCNC(=O)CCc1nc2cccnc2n1Cc1ccccc1,0,.,16%,.,1.1%,-0.1,0.4%
Cc1nc(N(CCO)C2CCCCC2)c2nnn(Cc3ccccc3)c2n1,5,22,?,-0.4,.,-2.8,4.4%
Cc1cc(Nc2ccc3c(c2)OCCO3)n2nc(C)nc2n1,?,13,-5%,1.6,-1.9%,0.8,-2.1%
CCOC(=O)C1(C)Oc2ccccc2C(c2ccc(OC)cc2)=C1C(=O)OC (configuration not stated),.,16,-18%,0.2,-4.4%,1.6,-0.2%
O=C(Nc1ccccc1N1CCOCC1)C1CCN(S(=O)(=O)c2ccc(F)cc2)CC1,6,-9,18%,1.5,-11%,0.2,9.0%
CCOc1ccccc1NC(=O)CN(c1ccc(C)cc1)S(=O)(=O)c1c(C)n[nH]c1C,-13,-2,15%,1.9,1.1%,0.9,-0.7%
CC(C)c1ccc(-c2cc(C(=O)NN3CCN(C)CC3)c3ccccc3n2)cc1,3,-3,40µM*,1.2,?,3.2,5.9%
Cc1nc(C(F)(F)F)ccc1C(=O)Nc1ccccc1N1CCOCC1,-1,-4,6%,-0.3,1.4%,.,0.1%
Cc1cccc(Cc2c(C)nc3nc(SCc4ccccc4C)nn3c2C)c1,.,48,.,2.2,?,.,0.8%
CCOC(=O)C1CCN(CCC(=O)Nc2ccc(C)c(C)c2)CC1,7,6,11%,3.6,0.0%,-10,-0.5%
CN(C(=O)c1cccc(NC(=O)C2CCCN(C(=O)OC(C)(C)C)C2)c1)C1CCC1 (configuration not stated),.,6,.,1.1,0.0%,.,2.3%
COc1ccc(Cc2c(-c3ccccc3)nc3cc(C)c(Br)c(C)n23)c(C)c1,.,16,.,0.0,-0.9%,.,7.3%
COCCn1c(=O)c2c(nc3n2CCCN3CCc2ccc(OC)c(OC)c2)n(C)c1=O,-16,-10,?,0.0,.,3.8,3.1%
CC1(c2nnnn2Cc2ccccc2)CCC(=O)N1Cc1cccnc1 (configuration not stated),.,.,.,-0.2,-2.0%,.,0.6%
CC(=O)Nc1ccc(S(=O)(=O)N2CCC(c3nnnn3-c3ccccc3)CC2)cc1,.,-18,.,3.9,-0.7%,.,0.9%
O=C1N2CCCCC1(Sc1ccccc1)CCC2 (configuration not stated),.,.,.,-0.6,1.2%,.,-0.6%
COC(=O)c1c[n+]([O-])ccc1OC,.,.,.,-0.4,-25%,.,2.5%
O=S(=O)(NCC(c1cccs1)S(=O)(=O)c1ccccc1)c1ccccc1 (configuration not stated),.,-16,.,2.3,-1.5%,.,-0.5%
CCOC(=O)c1cc(-c2ccc(N3C(c4ccsc4)=Cc4ccccc4C3CC(C)=O)cc2)cc([N+](=O)[O-])c1 (configuration not stated),.,.,.,0.1,-3.2%,.,2.2%
CCc1nc2ccc(C(=O)NCCc3ccccn3)cn2c1N(CC)CCOC,.,9,.,0.6,-0.8%,.,0.2%
Cc1ccc(S(=O)(=O)N(Cc2cccnc2)Cc2cc3ccccc3[nH]c2=O)cc1,3,-6,-3%,0.0,.,-4.1,2.0%
O=C(CNC(=O)c1ccc(OC(F)F)cc1)NCC1CCCO1 (configuration not stated),-3,11,23%,0.3,-0.1%,.,1.1%
CC(C)CC(=O)NC(=S)Nc1cc(C(=O)O)ccc1Cl,0,2,9%,-0.6,1.5%,.,1.6%
O=C(/C=C/c1ccc([N+](=O)[O-])cc1)Nc1cccnc1,.,18,-5%,-1.2,0.4%,-2.0,0.8%
Cc1ccc(N(CC(O)CN2C(=O)NC(C)(C)C2=O)S(=O)(=O)c2ccc([N+](=O)[O-])cc2)cc1 (configuration not stated),?,-1,9%,-0.8,-1.6%,.,1.2%
CCc1nnc(NC(=O)Cn2ccc(C(F)(F)F)n2)s1,-2,8,1%,0.8,-2.3%,3.6,-5.4%
CC(=O)N1N=C(c2ccccc2)CC1c1ccc(F)cc1 (configuration not stated),7,.,13%,.,-5.1%,0.8,1.7%
CC(=O)N1CCc2cc(Br)cc(S(=O)(=O)NCc3ccccn3)c21,1,-3,4%,-0.6,-0.3%,1.1,0.9%
CC(C)C(C(=O)Nc1ncn[nH]1)N1C(=O)c2ccccc2C1=O (configuration not stated),3,0,15%,1.1,0.3%,-2.6,-1.0%
NS(=O)(=O)c1ccc(NC(=O)/C=C/c2ccco2)cc1,-10,10,20µM*,-0.5,-4.3%,-0.6,3.9%

Other entries follow.
smiles,TRPV1 potentiator,TRPML1 inh,Sfp inh,TRPML1 ag,ClpP mod,Menin-MLL FL inh,PINK1 modulator
Cc1ccc(Cn2c(CO)cnc2SCC(=O)Nc2cccc(F)c2)cc1,.,-15,.,-1.1,0.4%,.,-1.2%
O=C(CSc1nc2ccsc2c(=O)n1-c1ccc(Br)cc1)NCc1ccccc1,-40,16,.,3.0,6.5%,.,0.4%
Cc1cnc(NC(=O)NCC2CCCC(CNC(=O)Nc3ncc(C)s3)C2)s1 (configuration not stated),4,-6,9%,-0.5,-1.0%,4.0,9.5%
CC(C)c1ccc(C2NC(=O)c3ccccc3O2)cc1 (configuration not stated),-8,-10,7%,-0.3,.,-3.3,2.6%
CCOC(=O)C1CCN(C(=O)CCc2nc3ccccc3[nH]2)CC1,7,5,1%,0.0,-1.2%,-1.3,0.0%
CCCc1nc2c(sc3nc4c(cc32)COC(C)(C)C4)c(=O)n1Cc1ccco1,-7,3,28µM*,-0.1,-3.0%,2.6,7.1%[38.3 µM]
COc1cc(NC(=S)NC(=O)CCc2ccccc2)cc(OC)c1,7,-4,10%,1.3,-11%,.,4.1%
CN1C(=O)Cc2cc(S(=O)(=O)N3CCOCC3)ccc21,12,3,4%,-0.5,-1.2%,1.2,0.4%

Record cards, as listed above.
Cc1nc(N(CCO)C2CCCCC2)c2nnn(Cc3ccccc3)c2n1 is entered as TRPV1 potentiator: 5; TRPML1 inh: 22; Sfp inh: ?; TRPML1 ag: -0.4; ClpP mod: .; Menin-MLL FL inh: -2.8; PINK1 modulator: 4.4%
CC1(c2nnnn2Cc2ccccc2)CCC(=O)N1Cc1cccnc1 (configuration not stated) is entered as TRPV1 potentiator: .; TRPML1 inh: .; Sfp inh: .; TRPML1 ag: -0.2; ClpP mod: -2.0%; Menin-MLL FL inh: .; PINK1 modulator: 0.6%
